FPR binder = binds the human formylpeptide receptor FPR; P21462; FPR-expressing cells, fluorescent ligand binding, flow cytometry; inhibition, %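 (tested at 6.7 µM)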; 24,000 compounds, 0.74% hits; AID 440;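 also: 0% = buffer wells and 100% = receptor blocker peptide wells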
Target sequence (P21462 whole entry, looked up): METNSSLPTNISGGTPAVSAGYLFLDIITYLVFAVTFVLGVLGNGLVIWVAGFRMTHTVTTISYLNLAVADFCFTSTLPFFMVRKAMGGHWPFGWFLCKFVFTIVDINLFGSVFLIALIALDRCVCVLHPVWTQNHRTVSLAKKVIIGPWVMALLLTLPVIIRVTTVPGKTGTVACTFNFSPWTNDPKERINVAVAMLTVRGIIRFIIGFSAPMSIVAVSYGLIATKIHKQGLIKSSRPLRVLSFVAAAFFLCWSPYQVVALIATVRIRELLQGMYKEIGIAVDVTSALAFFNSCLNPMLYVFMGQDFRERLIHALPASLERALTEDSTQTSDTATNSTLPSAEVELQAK
VCAM-1 augmentation = enhancers of VCAM-1 display on endothelial cells, imaging, high-content imaging, pooled HUVEC, TNFa stimulus (AID 457); 10,000 compounds, 0.2% hits; calls only; Pooled HUVEC, TNFa-induced VCAM-1 immunofluorescence imaging; hits of this screen are not shown here;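 active = a top-ranked rise in VCAM-1 staining upheld on image or statistical review; inactive = the rest, including candidates rejected on review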;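 also: compounds tested at 5 µM in the well; cells exposed to compound for 24 hours before fixing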
VCAM-1 down = suppression of endothelial VCAM-1 upregulation – cell-based, plate reader, pooled HUVEC, TNFa stimulus (AID 454); HUVEC TNFa-induced VCAM-1 surface immunofluorescence, plate reader; numbers were filed only for top-ranked candidate wells; inhibition, % at 5 µM; 10,000 compounds, 0.2% hits;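 active = compound among top-ranked inhibitors of TNF-induced VCAM-1 adhesion protein staining, with the hit upheld by image or statistical review; inactive = the rest, including hits rejected on review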;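 also: 0% = TNFa with vehicle and 100% = cells without TNFa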
VCAM-1 imaging = inhibitors of TNFa-induced VCAM-1 surface display, imaging, high-content imaging, pooled HUVEC, TNFa stimulus (AID 456) | HUVEC TNFa-induced VCAM-1 surface expression, immunofluorescence imaging; numbers were filed only for top-ranked candidate wells | one-dose inhibition, % at 5 µM; IC50 in µM for titrated hits | 10,000 compounds, 0.2% hits;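 active = top tenth filtered wells with inhibition above zero that passed visual or statistical confirmation; inactive = the rest, including hits rejected on review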;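 also: 0% = stimulated vehicle wells and 100% = unstimulated cells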
FPRL1 ligand = ligands of human FPRL1, also counter-screen for FPR ligands. P25090. FPRL1-expressing cells, fluorescent ligand binding inhibition, flow cytometry. inhibition, %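 (tested at 6.7 µM)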. 24,000 compounds, 0.3% hits. AID 441;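 also: 0% = buffer alone and 100% = receptor blocker peptide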
Target sequence (P25090 whole entry, looked up): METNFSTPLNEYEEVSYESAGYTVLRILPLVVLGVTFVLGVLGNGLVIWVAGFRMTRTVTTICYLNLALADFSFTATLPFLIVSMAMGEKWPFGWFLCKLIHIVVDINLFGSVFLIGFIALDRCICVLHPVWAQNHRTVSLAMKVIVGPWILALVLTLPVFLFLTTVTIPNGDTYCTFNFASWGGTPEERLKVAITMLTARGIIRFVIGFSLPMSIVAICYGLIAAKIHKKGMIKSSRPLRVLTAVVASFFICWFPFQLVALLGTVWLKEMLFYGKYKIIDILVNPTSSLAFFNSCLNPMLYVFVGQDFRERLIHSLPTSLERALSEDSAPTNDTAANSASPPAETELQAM
* hit, by the source's call; i = inactive; ? = inconclusive; . = not tested or not shown.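 The calls were made as follows, unless noted: active = mean above 30%; inconclusive = self-fluorescent; inactive = the rest.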 Some of the compounds tested, so the mix of outcomes need not match the whole.

canonical_smiles | FPR binder | VCAM-1 augmentation | VCAM-1 down | VCAM-1 imaging | FPRL1 ligand
CCOc1ccccc1C(=O)NC(C)c1ccc2c(c1)OCO2 (configuration not stated) | -9 | i | i | i | 1
CSc1cccc(NC(=O)C2CCN(S(C)(=O)=O)CC2)c1 | 17 | i | i | i | -5
CCOc1cccc(/C(O)=C2/C(=O)C(=O)N(Cc3cccnc3)C2c2ccco2)c1 (configuration not stated) | 28 | . | . | . | 29
COc1ccc(CNC(=O)c2cnn3c(C(F)F)cc(C)nc23)cc1OC | 6 | . | . | . | -3
Cc1c(C(=O)N2CCOCC2)sc2ncn(CC(=O)N3CCC(C)CC3)c(=O)c12 | -4 | . | . | . | -2
CCOC(=O)CSc1nc2sc(C)c(C)c2c(=O)n1C | 1 | i | i | i | -3
Cc1ccc(NC(=O)C2(N(CC(C)C)C(=O)Cn3nnnc3N)CCCCC2)cc1 | 2 | . | . | . | 4
CC(C)(C)OC(=O)N1CC=C2C(C#N)=C(N)C(C#N)(C#N)C(c3cccs3)C2C1 (configuration not stated) | 18 | i | i | i | 3
COc1cccc(C2CC(c3ccc(C)cc3)n3ncnc3N2)c1 (configuration not stated) | 9 | . | . | . | 8
[O-][n+]1c2c(nn1-c1ccccc1Cl)-c1nonc1CC2 | -3 | i | i | i | -4
CCn1c(N)c(C(=O)NCCCOC)sc1=S | 0 | . | . | . | -5
O=C(CCC1CCCCC1=O)c1ccccc1 (configuration not stated) | -1 | . | . | . | 4
COc1ccccc1NC(=O)CN1CCN(S(=O)(=O)c2ccc(Br)cc2)CC1 | 2 | . | . | . | 2
COC(=O)Nc1ccc(S(=O)(=O)N2CCCc3ccccc32)cc1 | 1 | . | . | . | 2
Cc1nc2ccc(C(=O)O)cc2c2c1CC(C)S2 (configuration not stated) | 6 | i | i | i | -1
Cc1nn(C)c(C)c1CNC(=O)c1cc2n(n1)C(C(F)(F)F)CC(c1cccs1)N2 (configuration not stated) | -1 | i | i | i | -7
Cn1c(C(=O)NCCCN2CCCC2=O)cc2c(=O)n(C)c3ccccc3c21 | 1 | . | . | . | 1
CC1CCN(Cc2ccc(NC(=O)C3CCN(c4nnc(-n5cccc5)s4)CC3)cc2)CC1 | -2 | i | i | 73% | 1
O=C(NC1CCCCC1)C1CCCN(S(=O)(=O)c2cnc[nH]2)C1 (configuration not stated) | -1 | . | . | . | -8
CC(C)CCN1CC(C(=O)NCc2ccccc2)CC1=O (configuration not stated) | -1 | i | i | i | 0
CC(=O)Oc1c(S(=O)(=O)c2ccc(C)cc2)c(C)nn1-c1ccccc1 | -2 | . | . | . | 9
Cc1ccc(C2=N/C(=C/N3CCOCC3)C(=O)O2)cc1 | 1 | i | i | i | -2
CCOc1ccc(-c2nc(C#N)c(N3CCN(Cc4ccccc4)CC3)o2)cc1 | -5 | . | . | . | 3
CCc1nn(CC(=O)NCCCN2CCc3ccccc3C2)c(=O)c2cc3sccc3n12 | 2 | i | i | i | -3
COCC(=O)Oc1c(S(=O)(=O)c2ccc(C)cc2)c(C)nn1-c1ccccc1 | -1 | . | . | . | 3
CC1Cc2nc(SCC(=O)Nc3ccccc3F)n(C)c(=O)c2S1 (configuration not stated) | -2 | i | i | i | -5
O=C(NCC1CCCO1)C1CC(c2ccc(Cl)c(Cl)c2)=NO1 (configuration not stated) | 2 | i | i | i | -3
Cc1nn(Cc2ccc(Cl)c(Cl)c2)c(C)c1NC(=O)c1noc2c1CCCCC2 | -8 | . | . | . | -6
Cc1ccc(S(=O)(=O)Cc2ccc(C(=O)N3CCN(c4cc(C)ccc4C)CC3)o2)cc1 | 3 | . | . | . | 0
CCOC(=O)C1CCN(c2cc(C)nc3cc(-c4cccc(F)c4)nn23)CC1 | -3 | i | i | i | -4
N#CCc1nc2c3c4c(sc3ncn2n1)CCCC4 | 0 | i | i | i | -2
Cc1cc(-c2ccccc2)nc2cc(C(=O)NCCCn3ccnc3)nn12 | 11 | i | i | i | 2
CCOC(=O)C1=C(c2ccccc2)N2CCN=C2S1 | 0 | i | i | i | 2
O=C(O)Cn1c(O)c(C=Nc2ccccc2)sc1=S | -2 | . | . | . | 2
CCC1CCCCN1CCNC(=O)c1[nH]c(C)c(C(C)=O)c1C (configuration not stated) | 3 | . | . | . | -1
O=C(CN1C(=O)C2C3C=CC(C3)C2C1=O)N1CCc2ccccc2C1 (configuration not stated) | -3 | . | . | . | -1
Cc1ccc2c(c1C)NC(C(=O)O)C1CC=CC21 (configuration not stated) | ? | i | i | i | ?
Cn1c(=O)[nH]c(=O)c2c1nc(CN1CCN(c3ccccc3F)CC1)n2CCCc1ccccc1 | -4 | . | . | . | -6
CCN(CCCn1c(SCC#N)nc2ccccc2c1=O)c1ccccc1 | -1 | . | . | . | -26
CCCCCn1c(CNC(C)=O)nc2ccccc21 | -3 | . | . | . | -8
O=C(C1CCC1)N1CCc2cc(S(=O)(=O)NC3CCCC3)ccc21 | -1 | . | . | . | -4
Cc1ccc(NC2=NC3(CCCCC3)N=C(N)N2)c(C)c1 | 6 | i | i | i | 4
CC1CCCC(C)N1C(=O)c1cc(-c2cccs2)on1 (configuration not stated) | 1 | . | . | . | 0
Cc1cnc(C(=O)OCC(=O)Nc2ccc(Cl)cc2Cl)cn1 | -2 | i | i | i | -5
COc1ccc(C(=O)N(CN2CCCC2=O)c2cc(C)on2)cc1OC | 0 | . | . | . | -2
COc1ccc(N(C(=O)c2cccc(OC)c2OC)C2C=CS(=O)(=O)C2)cc1 (configuration not stated) | 5 | . | . | . | -8
CCCS(=O)(=O)NCc1cn2cccc(C)c2n1 | -1 | . | . | . | 4
Cc1ccc(-c2cc(C(F)F)nc(N3CCC(C)CC3)n2)cc1 | 6 | i | i | i | 2
Cc1cc(C)n(CC2CC(=O)N(c3ccc(Cl)c(Cl)c3)C2=O)n1 (configuration not stated) | -2 | i | i | i | 8
CCOC(=O)c1cccc(NC(=O)CN(C)S(=O)(=O)c2cnc[nH]2)c1 | 1 | . | . | . | 1

Reprinted at random: 4 compounds from above, in no set order.
canonical_smiles | FPR binder | VCAM-1 augmentation | VCAM-1 down | VCAM-1 imaging | FPRL1 ligand
Cc1ccc(NC2=NC3(CCCCC3)N=C(N)N2)c(C)c1 | 6 | i | i | i | 4
Cc1cc(C)n(CC2CC(=O)N(c3ccc(Cl)c(Cl)c3)C2=O)n1 (configuration not stated) | -2 | i | i | i | 8
CCCS(=O)(=O)NCc1cn2cccc(C)c2n1 | -1 | . | . | . | 4
Cc1cnc(C(=O)OCC(=O)Nc2ccc(Cl)cc2Cl)cn1 | -2 | i | i | i | -5

Carrying on:
canonical_smiles | FPR binder | VCAM-1 augmentation | VCAM-1 down | VCAM-1 imaging | FPRL1 ligand
Cc1onc(-c2ccccc2Cl)c1C(=O)Oc1cc(N)n(S(=O)(=O)c2ccc(F)cc2)n1 | -3 | . | . | . | -6
Cc1ccc(-c2ccc(=O)n(CC(=O)NCCN3CCCCC3C)n2)cc1 (configuration not stated) | -4 | . | . | . | 8
S=C(c1ccc(-c2cc(Cl)ccc2Cl)o1)N1CCOCC1 | -8 | i | i | i | -7
O=C(CN1CCC(O)(c2ccc3c(c2)OCO3)CC1)OC1CCCCC1 | 1 | i | i | i | 2
O=C(NC1CCCCC1)C1CCN(S(=O)(=O)N2CCOCC2)CC1 | -3 | . | . | . | 6
COC(=O)c1ccc(CSc2nc3c(cnn3-c3ccc(F)cc3)c(=O)[nH]2)o1 | -7 | i | i | i | 0
Cc1cccc(-c2nnn(CC/C(N)=N/O)n2)c1 | 3 | i | i | i | 3
Cc1cccc(NC(=O)Cn2cnc3ccc(S(=O)(=O)N4CCC(C)CC4)cc3c2=O)n1 | 11 | . | . | . | 3
CCN1C(=O)c2ccc(C(=O)O)cc2C1=O | -9 | . | . | . | 10
COc1ccc(CN2CC(C(=O)NCCCN3CCN(Cc4ccccc4)CC3)CC2=O)cc1 (configuration not stated) | -6 | . | . | . | -8
O=C(NC1CCCC1)C1CCC(=O)N1C1CCCC1 (configuration not stated) | -3 | . | . | . | 0
COc1cc(OC)c(C2N(c3ccc(Cl)cc3)C(=O)C3CCCN32)cc1OC (configuration not stated) | -2 | . | . | . | -3
COCCNC(=O)CSc1nc2cc(OC)c(OC)cc2c(=O)n1CCC1=CCCCC1 | 2 | . | . | . | -4
O=C(NCCN1CCCCCC1)C1CC(=O)N(CCc2ccccc2)C1 (configuration not stated) | -2 | . | . | . | 1
O=C(CN1CCN(c2ccc(F)cc2)CC1)Nc1ccc(F)c(F)c1 | -4 | . | . | . | -2
Cc1cccc2cc(CN(CCN3CCCC3)C(=O)NC3CCCCC3)c(=O)[nH]c12 | 5 | i | i | i | 1
O=c1c2ccccc2nc(SCc2cccc(F)c2)n1Cc1ccco1 | 24 | i | i | i | -16
Cc1ncc(CSc2nc3ccccc3[nH]2)c(N)n1 | 6 | i | i | i | 0
CCCc1cc(C(=O)NCCc2ccc(OC)c(OC)c2)no1 | -5 | . | . | . | -4
C=CCn1c(COc2ccccc2F)nnc1SCC(=O)N1CC(=O)Nc2ccccc21 | -2 | i | i | i | 3
Cc1cccc(C2N(c3nccs3)C(=O)C3CCCN32)c1 (configuration not stated) | 1 | . | . | . | -2
Cc1nnc(Sc2cc(C(=O)NCc3ccco3)c3ccccc3n2)s1 | 8 | . | . | . | 2
Cc1nc2ncnn2c(Nc2ccc3c(c2)OCCO3)c1C | 9 | i | i | i | 3
COc1ccc2cc3cc(C(=O)NCC4COc5ccccc5O4)oc3nc2c1 (configuration not stated) | 0 | . | . | . | -7
O=C(O)C1CCCN1C(=O)c1cccs1 (configuration not stated) | -4 | i | i | i | 1

Ordered by molecular weight (largest number first): part of the list above.
canonical_smiles | FPR binder | VCAM-1 augmentation | VCAM-1 down | VCAM-1 imaging | FPRL1 ligand
Cc1cccc(NC(=O)Cn2cnc3ccc(S(=O)(=O)N4CCC(C)CC4)cc3c2=O)n1 | 11 | . | . | . | 3
O=C(NC1CCCCC1)C1CCN(S(=O)(=O)N2CCOCC2)CC1 | -3 | . | . | . | 6
Cc1nc2ncnn2c(Nc2ccc3c(c2)OCCO3)c1C | 9 | i | i | i | 3

(list continues)
canonical_smiles | FPR binder | VCAM-1 augmentation | VCAM-1 down | VCAM-1 imaging | FPRL1 ligand
COc1ccccc1C(=O)Nc1nc2ccc(S(C)(=O)=O)cc2s1 | 3 | i | i | i | -2
COc1ccc(-n2c(=O)[nH]cc(C(=O)N3CCc4ccccc43)c2=O)cc1 | -1 | . | . | . | 5
CCOC(=O)c1[nH]c2cc(OC)c(OC)cc2c1NC(=O)C(C)N1CCN(Cc2ccccc2)CC1 (configuration not stated) | -8 | i | i | i | -3
CCOC(=O)N1CCC(N2Cc3cccc(C(=O)NCc4ccc(OC)cc4)c3C2=O)CC1 | 0 | . | . | . | 3
COc1ccc(-c2noc(-c3cc(Cl)ccc3Cl)n2)cc1OC | 1 | i | i | i | -9
COc1ccccc1Cn1cnc2cccnc21 | -6 | . | . | . | 0
COC(=O)c1cccc(C(=O)Oc2cccc(Br)c2)n1 | 10 | . | . | . | -3
CCN1C(=O)c2cccc3c(NC(=O)c4ccc5c(c4)OCCO5)ccc1c23 | -3 | i | i | i | -1
Cc1ccc(NC(=O)C2CCCN(S(=O)(=O)c3c(C)noc3C)C2)cc1F (configuration not stated) | 0 | . | . | . | -3
CC1CCCC(NC(=O)CN2CCN(Cc3ccc(Cl)cc3)C2=O)C1C (configuration not stated) | 2 | i | i | i | -4
Cc1cccc(N(CC(=O)Nc2ccc(CC#N)cc2)S(C)(=O)=O)c1 | -2 | i | i | i | -2
c1ccc(-c2nnc(CSc3nncs3)o2)cc1 | 4 | i | i | i | 0
Cc1nccn1CCCN1C(=O)OC2(CCCCC2)C1(C)O (configuration not stated) | -4 | i | i | i | 4
CCOC(=O)c1[nH]c(C)c(C(=O)Nc2ccc(F)cc2)c1C | 7 | . | . | . | -4
COc1ccc(N(CC(=O)Nc2ccc(C)cn2)S(=O)(=O)c2c(C)nn(C)c2C)cc1 | 1 | . | . | . | -2
COc1ccccc1N1CCN(C(=O)CCCCn2c(=O)[nH]c3ccsc3c2=O)CC1 | 3 | . | . | . | 1
COc1cc(OC)cc(-c2nnc(SCC(=O)N3CCCCC3)o2)c1 | -5 | . | . | . | 0
C=CCN1C(=O)CSc2ccc(C(=O)NCc3ccco3)cc21 | -1 | . | . | . | -2
COC(=O)NCC(c1cccnc1)N1CCOCC1 (configuration not stated) | -8 | i | i | i | -2
O=c1[nH]c2cccnc2n1Cc1ccco1 | -3 | i | i | i | 1
O=C(CSc1ccc(-c2ccccc2)nn1)N1CCOCC1 | 23 | i | i | i | 6
CCOC(=O)C1CCN(C(=O)CS(=O)Cc2nc(-c3ccc(C)cc3)oc2C)CC1 (configuration not stated) | 6 | . | . | . | -3

High-throughput results as filed in PubChem.
